# From PubChem BioAssay
# Bst PK mod: modulators of Bacillus stearothermophilus pyruvate kinase; Potency, µM; hit rate 1.2% among 51,000; partly purified Bacillus stearothermophilus pyruvate kinase, luminescence ATP production; ribose 5-phosphate activator present at AC10; in the data active means potency below about 11 µM; inconclusive means mostly about 12 µM to 25 µM; inactive means weaker than that;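 the screen sought inhibitors and activators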;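 also: potency is read from the fitted curve at half-maximal effect; scaled between full activation by ribose 5 phosphate and full inhibition by luteolin; about four in five hits inhibit and the cells do not say which; series up to 57 µM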
# YjeE inh: YjeE (TsaE) inhibition, E. coli. hit rate 0.05% among 71,000. purified YjeE, fluorescence polarisation of a bound ADP probe. Potency, µM. P0AF67; active = well fitted falling curve; inconclusive = weaker or top-dose-only fall, or a rising curve; inactive = flat or poorly fitted curve;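 also: top concentration of the series not given in the record; excess ADP was the control for the full effect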
#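 Fluorescence polarization of a BODIPY Texas Red–ADP probe (2 uM) bound to purified YjeE (10 uM) was read after 15 min room-temperature incubation with compounds. Loss of polarization marks inhibitors; ADP serves as titrated control.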
# Active calls of the source: *; i = inactive; ? = inconclusive; / = no result given. Some of the compounds tested, so the mix of outcomes need not match the whole.
# Under each structure – Bst PK mod	YjeE inh
O=C(COC(=O)c1ccccc1NC(=O)c1ccco1)Nc1ccc2c(c1)OCO2
→ >57	i
O=C(CSc1nc2sc3c(c2c(=O)n1-c1ccccc1)CCCC3)NCc1ccco1
→ /	i
Cc1ccc(NC2=NC(c3ccco3)n3c(nc(C)cc3=O)N2)c(C)c1 (stereo not drawn)
→ i	i
O=C(NCCO)c1ccc(Cl)c(Cl)c1
→ /	i
O=C(CCn1c(=O)oc2ccccc21)N1CCN(c2ccc(F)cc2)CC1
→ /	i
COc1ccc(CCCc2nnc(SCC(=O)Nc3nc(C)cs3)n2C)cc1C
→ >57	i
CCCC(C(=O)OCCN(CC)CC)(c1ccccc1)c1ccccc1
→ /	i
CCOC(=O)c1ccc(Nc2ncnc3c2cnn3C)cc1
→ /	i
CCSCc1nnc(SCC(=O)c2ccc(OC)cc2)n1C
→ >57	i
N#Cc1nc(N2CCCCC2)nc(N2CCOCC2)n1
→ >57	i
CCC(C)NC(=O)CSC1=Nc2ccccc2C2=NC(CC(=O)NCc3ccc(F)cc3)C(=O)N12 (stereo not drawn)
→ >57	i
COc1ccc(CCNC(=O)c2[nH]c(C)c(C(C)=O)c2C)cc1OC
→ >57	i
CC(CCN(C)C)OC(=O)c1ccc(C(C)c2ccccc2)o1 (stereo not drawn)
→ >57	i
NS(=O)(=O)c1cc(C(=O)O)c(Cl)c([N+](=O)[O-])c1Cl
→ /	i
CCN(C(=O)Cc1cccs1)c1nnc(-c2cccnc2)s1
→ >57	i
O=C(NCCN1C(=O)CSC1=O)C1CC(=O)N(c2ccccc2)C1 (stereo not drawn)
→ >57	i
O=C1c2oc3ccccc3c(=O)c2C(c2ccc(Br)cc2)N1c1ncccn1 (stereo not drawn)
→ >57	i
CCCCOCCCNS(=O)(=O)Cc1ccccc1
→ /	i
COc1ccccc1OCc1nc(C#N)c(N2CC(C)CC(C)C2)o1 (stereo not drawn)
→ /	i
CCOC(=O)c1sc(NC(=O)CSc2nnc(-c3ccc(OC)cc3)n2CCOC)nc1C
→ >57	i

# 3 entries drawn at random from the list so far, as already listed:
# Under each structure – Bst PK mod	YjeE inh
COc1ccc(CCCc2nnc(SCC(=O)Nc3nc(C)cs3)n2C)cc1C
→ >57	i
O=C(CCn1c(=O)oc2ccccc21)N1CCN(c2ccc(F)cc2)CC1
→ /	i
CCC(C)NC(=O)CSC1=Nc2ccccc2C2=NC(CC(=O)NCc3ccc(F)cc3)C(=O)N12 (stereo not drawn)
→ >57	i

# (list continues)
# Under each structure – Bst PK mod	YjeE inh
CC(C)C1(C)C(=O)N=C2c3ccccc3C(=O)N21 (stereo not drawn)
→ >57	i
CCC(=O)Nc1cc2nn(-c3ccccc3)nc2cc1Cl
→ /	i
Cc1cc(C)n(Cc2ccc(F)cc2)c(=O)c1C#N
→ >57	i
CCCCC(=O)Nc1ccc(NC(=O)C2CC2)nc1
→ >57	i
Nc1nc(Cl)nc2c1ncn2[C@@H]1O[C@@H](COP(=O)(O)OP(=O)(O)OP(=O)(O)O)[C@@H](O)[C@H]1O
→ /	i
CCc1[nH]nc2c1C(c1ccncc1)C(C#N)=C(N)O2 (stereo not drawn)
→ >57	i
NO
→ /	i
Cc1cc(NC(=O)CSc2nnc(Cc3cccn3C)n2CCc2ccccc2)no1
→ /	i
Cn1c(SCC(=O)NCCc2ccccc2)nnc1-c1ccncc1
→ >57	i
COc1ccc(-n2c(=O)c(-c3ccc(Cl)cc3)nc3cnc(N(C)C)nc32)cc1
→ /	i
CC(C)(C)c1ccc(-c2conc2N)cc1
→ ?	i
COC(=O)Nc1nc2ccc(Sc3ccccc3)cc2[nH]1
→ >26	i
C=CCn1c(SCC(N)=O)nnc1-c1ccccc1O
→ >57	i
O=S1(=O)CCN=C2SC3=C(CCCC3)N21
→ >57	i
CC1(C)C(=O)Nc2ccccc2N1C(=O)COc1ncnc2ccccc12
→ >57	i
COC(=O)C1=C(C)NC(C)=C(C(=O)OC(C)C)C1c1cccc2nonc12 (stereo not drawn)
→ /	i
O=C(Cn1ncn2c(cc3ccccc32)c1=O)NCCC1=CCCCC1
→ >57	i
COC(=O)[C@@]1(Cc2ccc(F)cc2)[C@H]2c3cc(C(=O)N(C)C)n(Cc4ccc(Cl)c(C(F)(F)F)c4)c3C[C@H]2CN1C(=O)c1ccccc1
→ /	i
COCc1nnc(NC(=O)c2ccc(NC(C)=O)cc2)s1
→ >57	i
O=c1c(-c2cc(F)cc(F)c2)nc2cnc(N3CCOCC3)nc2n1C[C@H]1CCCO1
→ /	i
CCOC(=O)C1CCCN(c2nc3ccccc3nc2C(C#N)C(=O)OCCOC)C1 (stereo not drawn)
→ >26	/
COc1cc(-c2nc(-c3cccc(C)c3)no2)cc(OC)c1OC
→ /	i
CCN(Cc1ccccc1)C(c1ccccn1)c1nnnn1C(C)(C)CC (stereo not drawn)
→ >57	i
COc1ccc(C(CNC(=O)C2CC(=O)N(Cc3ccc(C)cc3)C2)N(C)C)cc1 (stereo not drawn)
→ >57	i
CCOC(=O)c1cnn(-c2cc(C)c3ccccc3n2)c1N
→ /	i
c1ccn2cc(CSC3=NCCS3)nc2c1
→ >57	i
CC12CC(c3ccccc3O1)N(C(=O)c1ccco1)C(=O)N2c1ccccc1 (stereo not drawn)
→ >57	i
CCC(=O)N1CCc2cc(S(=O)(=O)CCC(=O)Nc3cccc(F)c3)ccc21
→ >57	i
CCOC(=O)CSc1nnc(-c2cccnc2)n1Cc1ccccc1
→ >57	i
CCOC(=O)N1CCC(NC(=O)c2cccc3c2C(=O)N(c2ccc(OC)cc2)C3)CC1
→ /	i
COC(=O)Cn1c(=O)c2c(nc(Br)n2CC(=O)OC)n(C)c1=O
→ >57	i
Cc1ccc(Oc2ccc(N)cc2)cc1
→ >57	i
CCc1ccccc1NC(=O)Cn1nnc(-c2cccnc2)n1
→ >57	i
COc1ccccc1N1CCN(C(=O)CSc2nnc(NC(=O)c3ccco3)s2)CC1
→ /	i
COCC(=O)NCCNc1nc2ccc(C)cc2cc1C
→ /	i
Cc1cccc(OCc2nnc(SCC(=O)Nc3ccc(C)c(C)c3)o2)c1
→ /	i
C=CCn1c(O)c(CN2CCOCC2)c(C)c(C#N)c1=O
→ >57	i
CCOC(=O)N1CCN(C2OC(=O)c3ccccc32)CC1 (stereo not drawn)
→ >26	/
CCOC(=O)c1c(-n2cnnn2)sc(C)c1C
→ /	i
COc1ccc(-c2noc(CCC(N)=O)n2)cc1OC
→ >57	i
COc1ccccc1-c1cc(C(=O)Nc2ccc(F)cc2F)no1
→ >57	i
CCCCN(Cc1ccccc1)c1ncnc2nc[nH]c12
→ /	i
Cc1ccc(-n2ncc3c(=O)n(CC(=O)NCc4ccco4)cnc32)cc1
→ >57	i
N[C@@](C(=O)O)(c1ccc(P(=O)(O)O)cc1)C1CC1
→ /	i
Cn1c(C(=O)NCc2ccco2)cc2c(=O)[nH]c3ccccc3c21
→ 4.4*	i
CCOC(=O)c1sc(=NC(=O)c2cccc(OC)c2)n(C)c1C
→ >57	i
COc1ccc(CCNC(=O)c2cc3sc(Cl)cc3n2C)cc1OC
→ /	i
COC(=O)Cn1nnc(-c2cccc(OC)c2)n1
→ >57	i
O=C(O)CCCn1c(=O)[nH]c2ccccc2c1=O
→ >57	i
CCN(CC)C(=O)CSc1nnc([C@H](CCSC)NC(=O)OC(C)(C)C)o1
→ >57	i
O=C(CN1CCCC1)NCC1(c2ccccc2)CCOCC1
→ >57	i
CC(C)c1nnc(NC(=O)c2cccc(-n3cnnn3)c2)s1
→ >57	i
CC(=O)Nc1ccc(N=Cc2ccc[nH]2)cc1
→ /	i
CC1=CC(C#N)(C#N)C(C#N)(C#N)C(c2ccccc2)N1 (stereo not drawn)
→ >57	50µM*
Cc1cc(C)c(S(=O)(=O)N(C)Cc2cnn(C)c2)c(C)c1
→ /	i
O=C(O)c1ccccc1C(=O)Nc1n[nH]c(=S)s1
→ /	i
O=C(NCc1cccnc1)c1c(F)c(F)c(F)c(F)c1F
→ >57	i
COC(=O)c1cc2c(=O)n3ccccc3nc2n(C(C)C)c1=N
→ >57	i
Clc1ccccc1-c1nnc2sc(-c3ccc4c(c3)OCO4)nn12
→ >57	i
C[C@H](N)c1nnc(SCc2ccc(Cl)cc2Cl)o1
→ /	i

# Profiles, looked up by structure. Order of values: Bst PK mod | YjeE inh
# `N[C@@](C(=O)O)(c1ccc(P(=O)(O)O)cc1)C1CC1` across the screens: / | i
# `CC1=CC(C#N)(C#N)C(C#N)(C#N)C(c2ccccc2)N1` (stereo not drawn) across the screens: >57 | 50µM*
# `O=C(NCc1cccnc1)c1c(F)c(F)c(F)c(F)c1F` across the screens: >57 | i

# Continuation.
# Under each structure – Bst PK mod	YjeE inh
COc1ccc(C2=NOC(C(=O)NCc3ccc(F)cc3)C2)cc1OC (stereo not drawn)
→ >57	i
CC(C)C12CN3CC(C(C)C)(CN(C1)C31C(=O)Nc3ccccc31)C2=O (stereo not drawn)
→ /	i
O=C(CSc1nnc(Cc2ccccc2)o1)Nc1ccc(Br)cn1
→ >57	i
Cc1ccc([C@@H](O)c2cnc(C)n2Cc2ccccc2)cc1
→ /	i
CCOC(=O)C(C(C)=O)=C1SC2CS(=O)(=O)CC2S1 (stereo not drawn)
→ >57	i
CCCn1c(NC(=O)c2ccc(Cl)c(S(=O)(=O)N3CCCC3)c2)nc2ccccc21
→ >57	i
Cc1ccc(-c2nnc(SCC(=O)Nc3ccc(S(=O)(=O)N4CCCCCC4)cc3)o2)cc1
→ >57	i
CC(=O)OC(C)C[N+](C)(C)C (stereo not drawn)
→ >26	/
CCOC(=O)Nc1cc2c(C)cc(=O)oc2cc1C
→ >57	i
CN(CCNC(=O)CN1CCN(Cc2ccccc2Cl)C1=O)Cc1ccccc1
→ >57	i
COc1ccccc1N1CCN(S(=O)(=O)c2ccccc2F)CC1
→ i	i
O=P(c1ccccc1)(c1ccccc1)C(c1ccco1)N1CCOCC1 (stereo not drawn)
→ >57	i
O=C(Cn1nnc(-c2ccc3c(c2)OCO3)n1)N1CCOCC1
→ >57	i
CCOC(=O)C1=C(C)Nc2ccccc2N=C1NC(=O)CCCN1C(=O)c2ccccc2C1=O
→ >57	i
CCOC(=O)C1=C(C)NC(C)=C(C(=O)OCC)C1C1=COCCO1
→ >57	i
O=c1cc2n(c(=O)[nH]1)CCC1=C2CCCC1
→ >57	i
COc1cc2oc(-c3ccccc3)cc(=O)c2cc1O
→ /	i
N#Cc1c(N)n(CCOC(=O)c2ccc(Cl)cc2)c2nc3ccccc3nc12
→ >26	/
Cc1ccc(N2C(=O)c3ccccc3C2Nc2ccccc2F)nc1 (stereo not drawn)
→ /	i
COC(=O)c1cn(CC(=O)N2CCCCCC2)c2ccccc12
→ >57	i
Cc1noc(C)c1COC(=O)CCOc1ccccc1
→ >57	i
Cc1nnc(SCC(=O)Nc2nc3c(s2)CC(C)CC3)s1 (stereo not drawn)
→ >57	i
CC1(C)S[C@@H]2[C@H](NC(=O)Cc3ccccc3)C(=O)N2[C@@H]1C(=O)O
→ /	i
O=C(COC(=O)c1cnccn1)Nc1ccc(Cl)cc1
→ >57	i
Cc1ccc(C2C3=C(CC(C)(C)CC3=O)N(CCN3CCOCC3)C3=C2C(=O)CC(C)(C)C3)cc1
→ >57	i
O=C1C(O)CC2c3ccccc3CC3(CCCC3)N12 (stereo not drawn)
→ /	i
CC1CCCCC1NC(=O)c1nn(C)c(=O)c2ccccc12 (stereo not drawn)
→ >57	i
CCOC(=O)C1CCN(C(=O)c2cc3c(-c4ccc(OC)c(OC)c4)nn(C)c3s2)CC1
→ /	i
Cc1[nH]n2c(=O)cc(C(C)C)nc2c1-c1ccccc1
→ >57	i
N[C@H](C(=O)O)[C@@H]1[C@@H](C(=O)O)C1(F)F
→ /	i
CCNC(=O)CSc1nc2ccccc2c(=O)n1OC
→ >57	i
Cc1ccccc1OCCCN1CCCC1
→ /	i
CC(=O)NC1(C(F)(F)F)C(=O)Nc2c1c(=O)n(C)c(=O)n2C (stereo not drawn)
→ >26	/
Cc1cc(=O)[nH]c2c(C)c(N)ccc12
→ /	i
COc1ccc(-c2nc(-c3ccc(Br)o3)no2)cc1OC
→ /	i
CCn1nnc(NC(=O)CSc2ccc(Cl)cc2)n1
→ >57	i
CN1CCN(c2ncc3nc(-c4cn(C)c5ccccc45)c(=O)n(C)c3n2)CC1
→ /	i
CSc1nnc(N(CCC#N)CCC#N)s1
→ >26	/
CCOC(=O)c1cccc(NC(=O)CN(c2ccc(OC)cc2)S(=O)(=O)c2c(C)noc2C)c1
→ >57	i
OC(CCCN1CCCCC1)(c1ccccc1)c1ccccc1
→ /	i
CCOc1ccc(N2CC(C(=O)NC(C)C)CC2=O)cc1 (stereo not drawn)
→ >57	i
CC1CCc2cc(F)ccc2N1C(=O)c1cc2nc(-c3ccco3)cc(C(F)(F)F)n2n1 (stereo not drawn)
→ >57	i
N[C@H](Cc1cc(I)c(Oc2ccc(O)c(I)c2)c(I)c1)C(=O)O
→ /	i
CCOc1cc(NC(=O)c2ccco2)c(OCC)cc1NC(=O)COc1ccccc1C
→ >57	i
O=C(CCS(=O)(=O)Cc1ccccc1)Nc1nc2c(s1)CCCC2
→ >57	i
CC1=C(C(=O)Nc2cc(-c3cccc(F)c3)[nH]n2)C2(CCCCC2)OC1=O
→ /	i
O=C(Cn1c(NCCCO)nc2ccccc21)c1ccco1
→ >57	i
COC(=O)C1=C(C)NC(=O)C1(NC(=O)CN1CCCC1=O)C(F)(F)F (stereo not drawn)
→ >57	i
CC(=O)N(CCCN(C)C)CCC(C)CCC=C(C)C (stereo not drawn)
→ /	i
CCOC(=O)N1CCN(C(=O)CCCn2nc(C)c3sc4ccccc4c3c2=O)CC1
→ i	i
